Screens (PubChem)
MgrA DNA FP = modulators of Staphylococcus aureus MgrA DNA binding | inhibition, %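 (about 10 µg/mL by stock and volumes)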 | fluorescence polarization | AID 602314 | actives 0.13% (n = 84,000);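 active means above 50% in either of two replicates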;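 further: 0% = protein plus DNA without compound and 100% = DNA alone without protein; higher means less MgrA bound to DNA so lower polarization; one replicate is shown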
Sa helicase inh = S. aureus DNA helicase inhibition; purified S. aureus helicase, fluorescence unwinding assay; about half of the hits fall short of the stated cut; inhibition, %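 (tested at about 80 µM)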; actives 0.05% (n = 120,000); AID 485395;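 active means both duplicates at 50% or more, or one of them with a favoured structure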;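 further: 0% = mean of negative control wells and 100% = mean of positive control wells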
* marks the source's active call; other numbers are inactive results; nt = no result given; & = joins results of further samples.

Compound	MgrA DNA FP	Sa helicase inh
CCNc1ccc(S(=O)(=O)C(F)(F)F)cc1NCC(=O)N1CCCc2ccccc21	nt	-15
O=C(NCc1ccc(-c2nc3ccccc3o2)cc1)c1ccccc1Br	-0.3	6
COc1ccc2c(c1)-c1ccccc1S(=O)(=O)N2C(C)=O	16	5
CCc1nc2c(cnn2-c2ccc3ccccc3c2)c(=O)[nH]1	-1.6	-1
COc1cc2c(cc1OC)-c1nc3ccccc3c(=O)n1C(C)(C)C2	nt	3
CC(C)c1ccc(C(=O)O)c(C(C)C)c1	nt	-3
N#C/C(=C/c1cn(CC(=O)O)c2ccccc12)c1ccc(C(=O)O)cc1	4.0	9
COc1ccccc1N1CCN(CC(O)c2ccc3cc[nH]c3c2)CC1 (configuration not stated)	nt	-5
O=C(CSc1nnc(NC(=O)Cc2ccccc2)s1)Nc1ccccc1	nt	-20
CCOc1ccccc1NC(=O)CSc1nc2cnn(C)c2c(=O)n1Cc1ccccc1	nt	20
CC(=O)Nc1cc(C(F)(F)F)ccc1N1CCOCC1	0.5	-11
CC(C)c1ccc(/C=C/C(=O)O)cc1	-0.3	0
CN1/C(=C\C(=O)COC(=O)Cc2cn3ccsc3n2)C(C)(C)c2ccccc21	nt	-54
Cc1csc(N)c1C(N)=O	6.7	nt
CCN1C(=O)c2ccccc2Sc2ccc(NC(=O)NC3CCCC3)cc21	0.8	-6
CCCCCC(=O)N1c2ccccc2NC2=C(C(=O)CC(C)(C)C2)C1c1cccc(OC)c1OC (configuration not stated)	-1.4	nt
Cc1ccc2c(c1)N(C(=O)CN1CCCN(Cc3ccccc3)S1(=O)=O)CCO2	nt	26
Cn1ccnc1SCc1cn2ccsc2n1	2.0	-12
Cc1ccc(CNC(=O)C2CCCN(S(=O)(=O)c3c(C)[nH]c(=O)[nH]c3=O)C2)cc1 (configuration not stated)	nt	1
O=C(NCc1cccnc1)C1CCC(CNS(=O)(=O)c2cccc3nsnc23)CC1 (configuration not stated)	nt	-15
COc1ccc(OCC(O)CNC(=O)Nc2ccccc2)cc1 (configuration not stated)	-1.5	nt
CC1(C)CC(=O)C2=C(C1)OC1=C(C(=O)CC(C)(C)C1)C2c1ccc(OCc2ccc(Cl)cc2Cl)cc1	0.8	nt
Cc1nn(C(=O)C(C)N2C(=O)c3ccccc3C2=O)c(C)c1Br (configuration not stated)	nt	43
NC(=O)c1cc(S(=O)(=O)NCc2cccs2)cs1	nt	7
O=C(CC12CC3CC(CC(C3)C1)C2)NCC(=O)OCc1nnc(-c2ccc(Br)cc2)o1	nt	-8
COC(=O)c1cc(S(=O)(=O)N2CCSC2)oc1C	-0.9	nt
CC(C)(C)NC(=O)CCC1=NS(=O)(=O)c2ccccc2N1	nt	-11
COc1cccc2cc(C(=O)N3CCN(CCO)CC3)c(=O)oc12	-4.0	14
O=C1CC(C(=O)Nc2ccccc2)N=C(N2CCCCC2)N1 (configuration not stated)	-1.1	1
Cc1cc(C(=O)COC(=O)Cn2cnnn2)c(C)n1-c1cccc(S(=O)(=O)N2CCOCC2)c1	nt	-15
CCOc1ccc(Cl)cc1S(=O)(=O)N1CC(C)OC(C)C1 (configuration not stated)	nt	-36
Cc1csc2c(=O)sc(NC(=O)c3ccc(F)cc3Cl)nc12	1.3	nt
c1ccc(CSc2snnc2-c2ccccc2)cc1	1.1	nt
CC(C)C(=O)N1N=C(c2ccccc2)CC1(O)C(F)(F)F (configuration not stated)	1.9	8
COc1cccc(-c2nnc(NC(=O)c3ccc(S(=O)(=O)N(Cc4ccccc4)C(C)C)cc3)o2)c1	nt	-3
CN(C)/C=C1\CSc2ccc(F)cc2C1=O	5.8	nt
CC(C)NC(=O)NNc1c(Cl)cccc1Cl	nt	-11
Cc1cc(C(=O)/C(C#N)=N/Nc2cccc(Cl)c2)n(C(C)(C)C)n1	nt	21
O=C1CC(c2ccccc2)CC(O)=C1C=NCc1cccc(C(F)(F)F)c1 (configuration not stated)	2.5	7
Cc1ccc(Cn2nccc2NC(=O)c2cccnc2Nc2ccccc2F)o1	nt	-23
COc1ccc(OC)c(NC(=O)CSc2nccn2-c2cccc(Cl)c2)c1	nt	3
NC(=O)c1ccc(NC(=O)CCC(=O)N2CCN(S(=O)(=O)c3ccc(Cl)cc3)CC2)cc1	nt	-9
O=C(Nc1ccc(NC(=O)c2cccnc2)cc1)c1cccnc1	-0.8	-23
COC1=C2C[C@@H](C)C[C@H](OC)[C@H](O)[C@@H](C)/C=C(\C)[C@H](OC(N)=O)[C@@H](OC)/C=C\C=C(/C)C(=O)NC(=CC1=O)C2=O	1.7	nt
Clc1ccc(-c2nc(-c3cccc(-n4cccc4)c3)no2)cc1	-0.2	nt
O=C1OC(c2ccco2)=N/C1=C\c1ccco1	4.0	-8
CC(C)C(=O)CC(c1ccccc1)C1C(=O)NC(=O)NC1=O (configuration not stated)	-1.6	16
Cc1ccn2c(=O)cc(CNCC3(N4CCCCC4)CCCCC3)nc2c1	nt	8

Reprinted from the part before: 7 entries, then new ones.
Compound	MgrA DNA FP	Sa helicase inh
NC(=O)c1ccc(NC(=O)CCC(=O)N2CCN(S(=O)(=O)c3ccc(Cl)cc3)CC2)cc1	nt	-9
O=C(Nc1ccc(NC(=O)c2cccnc2)cc1)c1cccnc1	-0.8	-23
COC1=C2C[C@@H](C)C[C@H](OC)[C@H](O)[C@@H](C)/C=C(\C)[C@H](OC(N)=O)[C@@H](OC)/C=C\C=C(/C)C(=O)NC(=CC1=O)C2=O	1.7	nt
Clc1ccc(-c2nc(-c3cccc(-n4cccc4)c3)no2)cc1	-0.2	nt
O=C1OC(c2ccco2)=N/C1=C\c1ccco1	4.0	-8
CC(C)C(=O)CC(c1ccccc1)C1C(=O)NC(=O)NC1=O (configuration not stated)	-1.6	16
Cc1ccn2c(=O)cc(CNCC3(N4CCCCC4)CCCCC3)nc2c1	nt	8
S=C(NC1CC1)N(Cc1ccco1)Cc1cccs1	nt	-5
C/C(=N\NC(=O)C1CC1)c1ccc(Cl)s1	nt	-13
N#Cc1ccc(OCC(=O)N=Nc2[nH]c(N)c3ccccc23)cc1	nt	-21
CCOC(=O)c1c(CS(=O)c2ccc(Cl)cc2)oc2c(F)c(F)c(F)c(F)c12 (configuration not stated)	-0.3	nt
O=C(c1ccccc1)N1CCc2c([nH]c3ccccc23)C1c1ccccc1 (configuration not stated)	0.2	7
CC(Nc1nc(N2CCN(S(C)(=O)=O)CC2)nc2ccccc12)c1ccccc1 (configuration not stated)	nt	3
CCOC(=O)c1c(C)n(-c2ccc(N(CC)CC)cc2)c2c1cc(O)c1ccccc12	1.2	nt
CN(Cc1nc(-c2ccccc2)no1)C(=O)CC1CCCCC1	-2.1	3
Cc1no[n+]([O-])c1COc1cccc(/C=C2\SC(=S)NC2=O)c1	nt	14
CCc1cc2c(NCC3CCCO3)ncnc2s1 (configuration not stated)	-4.7	17
CCOC(=O)/C(C)=N/Nc1ccc(OC(F)(F)F)cc1	nt	-34
O=C1CC(c2ccsc2)c2c(-c3ccccc3)nn(-c3ccccc3)c2N1 (configuration not stated)	nt	-6
O=C1/C(=C\c2cccs2)N=C(c2ccccc2)N1Cc1ccc(Cl)cc1	-0.1	nt
CCNc1nc(NC(C)C)nc(OCCOC(=O)c2ccccc2)n1	2.4	nt
O=C1c2ccccc2C(=O)c2c(NC(=O)c3cccc4c3C(=O)c3ccccc3-4)cccc21	-0.2	nt
COc1ccc(-c2nn(-c3ccccc3)cc2/C=C\C(=O)N2CCCCC2)cc1	-1.3	7
CC1(C)C2CCC1(C)C(C#N)(Nc1ccccc1)C2 (configuration not stated)	-1.8	nt
COC(=O)CC1SC(=O)NC1=S (configuration not stated)	nt	3
COCC(=O)N(Cc1ccccc1)c1ccccn1	6.5	15
O=C(Nc1cccc(C(F)(F)F)c1)/C(=C\c1cccs1)c1ccsc1	-1.4	nt
CC(=O)/C(C)=N/NC(=O)CC#N	3.3	nt
ON(Cc1c(F)cccc1Cl)Cc1c(F)cccc1Cl	3.1	nt
CCOC(=O)c1cc(-c2ccc(F)cc2)n(CC(=O)N2CCn3c2nc2ccccc23)c1C	nt	7
COC(=O)C1=NNC(C(=O)OC)=NN1	nt	24
O=C(/C=C/c1ccco1)Nc1ccccc1C(=O)OCC(=O)c1cccs1	nt	-5
CNc1ccccc1C(C)(C)c1cc(-c2ccccc2C)no1	nt	-6
CC(C)c1nc2ccccc2n1CCc1ccccc1	nt	8
NNC(=O)CSc1nnc2c(n1)[nH]c1ccccc12	nt	-10
Cc1ccc(N=Cc2cn(-c3ccccc3)nc2-c2ccccc2)cc1	1.1	12
O=C(OCC(=O)N1N=C2/C(=C/c3ccco3)CCCC2C1c1ccco1)c1cccc(S(=O)(=O)N2CCOCC2)c1 (configuration not stated)	nt	-10
Cc1cc(C)cc(C(=O)Nc2ccc(-c3ccc(N4CCOCC4)nn3)cc2)c1	nt	7
CC(C)(C)OC(=O)N1CCC(c2cc(=O)n3[nH]cc(C(=O)Nc4ccc(F)c(Cl)c4)c3n2)CC1	5.5	8
CN(Cc1ccccc1)C(=O)c1cccc(N2C(=O)C3C4C=CC(C4)C3C2=O)c1 (configuration not stated)	nt	5
Cc1cc(COc2ccccc2OCCN2CCN(C)CC2)no1	-5.2	0
CCc1cc2c(cc(C(=O)NCc3ccccc3)n2C)s1	9.2	-2
NC(N)=Nc1nc(-c2cc(Cl)sc2Cl)cs1	1.0	nt
CCCCn1nnnc1SCC(=O)c1cc(OC)ccc1OC	-6.7	5
Cc1ccc2c(c1)c1c3n2CCN(CC#N)C3CCC1 (configuration not stated)	-1.6	8
CCc1cccc(CC)c1N1C(=O)C(C)=C(C)C1=O	-0.9	nt
Cc1cc2cc(CNC(=O)C34CC5CC(CC(C5)C3)C4)ccc2n1C	0.3	17
O=C(NCc1cccs1)c1ccc2ncsc2c1	nt	-22
C=CCc1cc2c(C)cc(=O)oc2c(C)c1O	-1.1	6
COc1cccc(NC(=O)CN(C)CC(=O)Nc2ccc3c(c2)CCC3)c1	nt	-1
CC1CN/C(=C/C(=O)c2ccccc2)C(=O)N1 (configuration not stated)	1.1	5
CCCN(CCC)C(=O)CCc1ccccc1	3.0	4
Nc1nnc(SCCCc2ccccc2)s1	-2.8	8
CCCCn1c(=O)c2c(O)cc(=O)oc2c2ccccc21	-3.6	nt
CCCCn1c(=O)c(-c2ccccc2)c(O)c2ccccc21	-3.4	nt
C=C1SC(Nc2ccccc2OC)=NC12CCCCC2	2.0	nt
CCCc1n[nH]c(=S)n1N	nt	8
CCOc1ccc(CN(Cc2ccco2)C(c2ccc(C(F)(F)F)cc2)c2nnnn2CCOC)cc1 (configuration not stated)	-2.1	-2
COCCN1C(=O)C(C)SC1c1ccc(Br)cc1 (configuration not stated)	nt	-3
O=C(Nc1ccccc1C(=O)OCC(=O)N1CCOCC1)c1ccco1	nt	-7
CCOc1nc(NC)nc(N(C#N)CN2C(=O)c3ccccc3C2=O)n1	-1.1	6
COC(=O)c1sc2ccccc2c1NC(=O)c1ccco1	nt	4
Oc1ccc(Br)cc1C=Nc1ccc2[nH]ncc2c1	0.2	10

Some of these compounds in order of their number in Sa helicase inh, rising:
Compound	MgrA DNA FP	Sa helicase inh
O=C(Nc1ccccc1C(=O)OCC(=O)N1CCOCC1)c1ccco1	nt	-7
CCOc1ccc(CN(Cc2ccco2)C(c2ccc(C(F)(F)F)cc2)c2nnnn2CCOC)cc1 (configuration not stated)	-2.1	-2
CCOc1nc(NC)nc(N(C#N)CN2C(=O)c3ccccc3C2=O)n1	-1.1	6

The listing continues:
Compound	MgrA DNA FP	Sa helicase inh
CC1(C(=O)NC2CCCCC2)Cc2ccccc2C(=O)N1Cc1cccnc1 (configuration not stated)	nt	1
Cn1c(CNC(c2ccccc2)c2ccccc2)nc2ccccc21	nt	3
COc1ccc(C(C)(C)C)cc1NC(=O)COC(=O)C(C)C	nt	-10
CCC(=O)c1ccc(OCC(=O)N2c3ccccc3CC2C)cc1 (configuration not stated)	1.6	-16
C=CCOC(=O)C1=C(C)NC2=C(C(=O)CC(c3ccc(OC)cc3)C2)C1c1ccc(OCC)c(OC)c1 (configuration not stated)	-2.4	nt
COc1ccc(NC(=O)CCN2C(=O)/C(=C\c3cccs3)SC2=S)cc1	-1.8	nt
Cc1cc(C(=O)CSc2nc(N)nc(N)n2)c(C)n1C1CCS(=O)(=O)C1 (configuration not stated)	nt	-9
CCN(CC)C(=O)COc1coc(CN2CCN(c3ccccc3)CC2)cc1=O	nt	7
CSc1cc(C(C)(C)C)nn1S(=O)(=O)c1ccc(F)cc1F	-1.3	nt
Cc1ccc(-c2nnc(-c3ccccc3)o2)cc1	-2.4	0
O=S1(=O)N=C(Nc2ccccc2)c2ccccc21	-0.4	-19
Cc1cc(C)cc(C(=O)Nc2cc(C)c3c(=O)oc4ccccc4c3n2)c1	nt	-5
CCn1c(-c2ccccc2)n[nH]c1=S	4.2&0.2	13&-7
CN1/C(=C\C(=O)Cn2nnc(-c3ccccc3)n2)C(C)(C)c2ccccc21	nt	-12
Cc1cc(Cl)nc(Cl)c1C(N)=O	-2.4	-7
O=C1CC(c2ccco2)CC(O)=C1C=NCC1CCNCC1 (configuration not stated)	-1.2	3
COC(=O)c1ccccc1N1CC(C)(C)C1=O	2.1	nt
COC(=O)CCCN=C1SCCN1Cc1ccccc1	nt	8
Cn1cccc1Cc1nnc(SCC(=O)NCc2ccco2)n1CCc1ccccc1	-3.5	5
CC(=O)Oc1ccccc1N(/C=C1/Sc2ccccc2C1=O)C(C)=O	-3.4	nt

Not all compounds are listed; rates above refer to the full screens.
